GLA inh pH 4.5 = qHTS Assay for Inhibitors of Human alpha-Galactosidase at pH 4.5; activity change, negative = inhibition, % at 105 µM; 230,000 tested, under 10 active; purified enzyme, 4-MU-alpha-Gal fluorescence, pH 4.5; Alpha-galactosidase A (Homo sapiens), P06280; inconclusive = small, poorly fitted or top-dose-only inhibition, or a rising curve; inactive = flat fitted curve, though single readings scatter; no compound was filed as active;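 further: 0% = full activity with enzyme and -100% = basal without enzyme; dose as in the result columns while the protocol names 77 µM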
Target sequence (P06280 whole entry, looked up): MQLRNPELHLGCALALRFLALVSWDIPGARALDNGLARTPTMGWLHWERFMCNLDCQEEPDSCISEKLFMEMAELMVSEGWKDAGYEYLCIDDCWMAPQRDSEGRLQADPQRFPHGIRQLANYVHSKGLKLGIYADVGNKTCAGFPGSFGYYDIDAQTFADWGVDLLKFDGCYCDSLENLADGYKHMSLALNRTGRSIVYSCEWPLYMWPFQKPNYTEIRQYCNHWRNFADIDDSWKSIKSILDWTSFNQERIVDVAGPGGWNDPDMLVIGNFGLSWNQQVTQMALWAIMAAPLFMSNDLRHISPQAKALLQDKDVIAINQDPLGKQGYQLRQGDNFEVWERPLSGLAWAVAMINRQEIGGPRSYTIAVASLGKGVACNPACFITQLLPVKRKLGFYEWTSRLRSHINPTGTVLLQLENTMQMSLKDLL
Rango release inh = qHTS Assay for Inhibitors of RanGTP induced Rango (Ran-regulated importin-beta cargo) - Importin beta complex dissociation | Biochemical FRET Rango-importin beta, RanGTP-induced dissociation | Potency, µM (series often up to 46.1 µM), for the others: at the top dose activity change, negative = inhibition | actives 0.071% (n = 340,000) | AID 540253, 2011; active means falling FRET ratio curve, often poorly fitted, with flat reads before Ran was added; inconclusive means other falling curves, or compound fluorescence or quenching; inactive means flat or rising ratio curve;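 further: potency means the concentration at half of the fitted maximal effect; % of control where 0% means no effect; nearly all actives have a fitted effect of over 45% in size; -100% = wells without RanGTP and RCC1; the record marks most hits as doubtful in a second field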
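Rango FRET biosensor (snurportin-1 IBB flanked by N-terminal EYFP and C-terminal CFP10) at 0.1 uM, with 0.25 uM importin beta in PBS, 1mM DTT, 0.02% Tween-20, 0.1% BSA. 0.6 uM Ran, 2mM GTP and 0.2 uM RCC1 were then added for 45 min at room temperature. Inhibition read as loss of FRET rise.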
miR-21 reporter = qHTS Assay for Modulators of miRNAs and/orActivators of miR-21; HeLa miR-21 FLuc reporter, luciferase, 48 h; Potency, µM (doses to about 38.3 µM), inactives show at the top dose reporter change, positive = more light; 340,000 tested, under 10 active; active = well fitted rising curve with a large enough effect; inconclusive = small, poorly fitted or top-dose-only effect; inactive = no such curve, though single readings can be large or run the other way;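 further: % of control where 0% means no effect; miR-21 action dims this reporter so a rising signal means less miR-21 action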
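Compounds were titrated across several concentrations (up to approximately 40 uM) and incubated 48 hours with HeLa miR-21-FLuc reporter cells (miR-21 target sequence downstream of FLuc, endogenous miR-21). Readout was firefly luciferase luminescence after lytic detection reagent.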
Rango complex inh = qHTS Assay for Inhibitors of Rango (Ran-regulated importin-beta cargo) - Importin beta complex formation; Rango CFP/YFP FRET sensor + importin beta, 45 min; Potency, µM (highest dose often 92.2 µM), for the others: at the highest dose inhibition of complex formation; AID 540263, 2011; actives 0.031% (n = 340,000); Importin subunit beta-1 (Homo sapiens), Q14974; active = rising FRET ratio curve, often small or poorly fitted; inconclusive = mostly compound fluorescence or quenching in the first reads; inactive = flat curves in all reads;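 further: potency means the concentration at half of the fitted maximal effect; 0% = DMSO wells and 100% = buffer wells lacking importin beta; nearly all actives have a fitted effect of over 15% in size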
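FRET biosensor Rango (snurportin 1 IBB between N-terminal EYFP and C-terminal Cerulean), 50 nM in PBS/1 mM DTT/0.02% Tween-20/0.1% BSA, preincubated 5 min RT with compound; 0.125 microM importin beta added, 45 min RT, CFP/YFP FRET ratio read.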
An asterisk follows results filed as active; ? = inconclusive; . = not tested or not shown; [ ] = remark or other dose.

#1 C#CCN1C(=O)C(O)(c2c(C)[nH]c3ccccc23)c2ccccc21 (configuration not stated)
#2 CC1CCCN(CC(O)CN)C1 (configuration not stated)
#3 Cn1c(=N)n(CC(=O)O)c2ccccc21
#4 Cc1cc(NC(=O)CCC(=O)N(c2ccccc2)C(C)C(=O)NC2CCCC2)no1 (configuration not stated)
#5 COc1ccc(/C=C/C(=O)Nc2nnc(C(C)C)s2)cc1OC
Compound,1,2,3,4,5
GLA inh pH 4.5,-4.7,2.4,2.3,.,-1.0
Rango release inh,-18.7%,-7.4%,-17.6%,46.5%,9.7%
miR-21 reporter,2.2%,-8.4%,-2.2%,0.3%,-4.1%
Rango complex inh,?,-0.9%,-1.6%,-4.2%,2.8%

#6 COc1ccc(NC(=O)c2ccccc2NC(=O)c2ccco2)c(OC)c1
#7 O=C(O)C1CC=CCC1C(=O)NC12CC3CC(CC(C3)C1)C2 (configuration not stated)
#8 O=C(Cn1nc(C(=O)O)c2ccccc2c1=O)Nc1cc(S(=O)(=O)N2CCOCC2)ccc1Cl
#9 CCOc1ccc(C(=O)NC(=S)Nc2ccc(NC(=O)c3ccco3)cc2)cc1[N+](=O)[O-]
#10 O=C(NCc1ccco1)/C(=C/c1ccc(Cl)cc1)NC(=O)c1ccco1
Compound,6,7,8,9,10
GLA inh pH 4.5,-6.0,-5.1,.,1.8,.
Rango release inh,0.0%,-16.3%,-5.4%,-3.0%,8.5%
miR-21 reporter,-11.3%,-1.8%,.,-1.6%,-1.3%
Rango complex inh,0.9%,4.3%,-1.8%,-4.9%,0.1%

#11 Cc1ccc(-n2ncc3c(NCc4ccco4)ncnc32)cc1C
#12 O=C(Cc1ccccc1Cl)N/N=C/c1cccnc1
#13 CCOC(=O)C1CCCN(C(=O)c2ccc(S(=O)(=O)N3CCCC3)cc2)C1 (configuration not stated)
#14 CC1(C)Cc2c(sc(NC(=O)c3ccco3)c2C(=O)O)CO1
#15 CN(C)CCCNc1oc(-c2ccc(Cl)cc2)nc1C#N
Compound,11,12,13,14,15
GLA inh pH 4.5,-5.1,.,.,7.1,-1.1
Rango release inh,7.8%,-8.8%,2.3%,14.1%,0.3%
miR-21 reporter,-42.4%,-12.6%,.,6.7%,-20.7%
Rango complex inh,5.0%,-0.3%,-1.3%,1.7%,0.3%

#16 O=C1CC(c2ccccc2)Oc2cc(O)cc(O)c21 (configuration not stated)
#17 Cc1ccc(C2CC(=O)c3cnn(-c4nc(C)cc(C)n4)c3C2)cc1 (configuration not stated)
#18 COc1cccc(-c2ccc(NC(=O)C3CCCN(CCCn4nc(C)cc4C)C3)cc2)c1 (configuration not stated)
#19 O=C(O)CSc1ncnc2scc(-c3ccc(Br)cc3)c12
#20 COc1cc(S(=O)(=O)Nc2c(C)cc(C)cc2C)ccc1Cl
Compound,16,17,18,19,20
GLA inh pH 4.5,-4.0,-5.9,.,-3.5,1.1
Rango release inh,-2.3%,-2.8%,6.7%,9.1%,0.2%
miR-21 reporter,-59.5%,-6.1%,-6.4%,-0.2%,0.0%
Rango complex inh,-0.3%,1.2%,-4.3%,1.3%,-1.9%

#21 Cc1ccc(S(=O)(=O)CCNC(=O)Cc2ccc(Cl)cc2)cc1
#22 CN1C(=O)c2cccc(N(C)C)c2C1=O
#23 Cc1ccc2cccc(OCc3ccccc3)c2n1
#24 O=S(=O)(c1ccccc1)N1CCN(c2nc(-c3cccs3)nc3ccccc23)CC1
#25 O=C(Cn1cc2c(n1)CCCC2)NCCCN1CCN(C2CCCCC2)CC1
Compound,21,22,23,24,25
GLA inh pH 4.5,-3.0,-0.5,4.3,-4.2,4.7
Rango release inh,-3.5%,-18.0%,1.1%,.,?
miR-21 reporter,-5.7%,-2.0%,-2.9%,-4.8%,0.7%
Rango complex inh,1.8%,?,1.2%,.,7.0%

#26 CCCn1c(C)cc(/C=C(\C#N)C(=O)O)c1C
#27 CC(=O)Oc1cc2cccc(OC(C)=O)c(=O)c2c(OC(C)=O)c1OC(C)=O
#28 COCCCNC(=O)c1ccc(S(=O)(=O)c2ccc(Cl)cc2)c(NC(C)=O)c1
#29 CSc1cc(C)n(-c2ccccc2)c(=S)c1C(C)=O
#30 CN(CCC#N)C(=O)COC(=O)c1ccc(CNS(=O)(=O)c2ccc(F)c(Cl)c2)cc1
Compound,26,27,28,29,30
GLA inh pH 4.5,-11.7,1.9,.,-9.1,-0.8
Rango release inh,17.1%,-10.7%,8.1%,-2.3%,-16.2%
miR-21 reporter,-15.4%,19.8%,-2.3%,-0.2%,-3.4%
Rango complex inh,-0.7%,0.0%,-0.2%,0.2%,-1.4%

#31 Cn1c(OCc2cccnc2)nc2c1c(=O)n(Cc1ccc(Br)cc1)c(=O)n2C
#32 N/C(=N\OC(=O)CCC1CCCC1)c1ccc([N+](=O)[O-])cc1
#33 COc1cccc(CC(NC(C)=O)C(=O)NC2CCN(S(=O)(=O)c3ccc(NC(C)=O)cc3)CC2)c1OC (configuration not stated)
#34 CC(=O)N1CCC2(CC1)CC(=O)c1cc(Cl)ccc1O2
#35 CCc1ccc(NC(=S)N(Cc2ccccc2)Cc2ccccn2)cc1
Compound,31,32,33,34,35
GLA inh pH 4.5,4.8,-2.9,.,.,-6.6
Rango release inh,7.4%,-3.7%,0.5%,4.6%,-11.3%
miR-21 reporter,-5.3%,-20.0%,-4.5%,.,5.5%
Rango complex inh,-11.3%,-0.9%,-1.0%,-0.6%,1.4%

#36 COc1cccc(/C=C/C(=O)OCC(=O)NC2CC2)c1
#37 CCn1cc(C(C)NC(=O)COc2ccc(Cl)cc2C)c(C)n1 (configuration not stated)
#38 CCCN(C(=O)COC(=O)CCOc1ccccc1C)c1c(N)n(Cc2ccccc2)c(=O)[nH]c1=O
#39 CCCn1c(=O)c(/C(N)=N/O)nn(-c2cccc(C(F)(F)F)c2)c1=O
#40 FC(F)Sc1nc2ccccc2[nH]1
Compound,36,37,38,39,40
GLA inh pH 4.5,.,6.7,.,-2.0,4.2
Rango release inh,18.0%,-6.4%,2.7%,-16.7%,23.6%
miR-21 reporter,.,0.0%,-0.8%,-7.1%,-2.8%
Rango complex inh,5.0%,0.0%,2.6%,-2.8%,0.9%

#41 COc1ccc(C2CCCN2C(=S)Nc2ccccc2C)cc1OC (configuration not stated)
#42 Cn1sc(NC(=O)c2ccccc2)nc1=O
#43 CCCCNC(=S)Nc1ccccc1F
#44 CCc1ccccc1NC(=O)CSc1nnc(Cn2nnc3ccccc32)n1C
#45 Cc1onc(-c2c(Cl)cccc2Cl)c1C(=O)N1CCN(c2ccccc2)CC1
Compound,41,42,43,44,45
GLA inh pH 4.5,-9.7[21.1 µM],-19.0,2.4,4.6,9.0
Rango release inh,3.9%,-8.7%,-16.0%,-9.0%,-12.1%
miR-21 reporter,-2.0%,-21.7%,-1.4%,-3.0%,-0.6%
Rango complex inh,-0.2%,1.7%,-0.3%,-1.0%,1.4%

#46 COC(=O)c1sccc1NC(=O)Nc1ccc(C(C)=O)cc1
#47 COc1ccc(CNC(=O)c2sccc2C)cc1
#48 Cc1ccccc1C(=O)NN(C)c1nc2ccccc2nc1C(F)(F)F
#49 Cc1noc(C)c1-c1ccc2ncnc(NC(C)c3ccco3)c2c1 (configuration not stated)
#50 Cc1ccccc1OCc1nc2ccc(S(=O)(=O)N3CCOCC3)cc2[nH]1
Compound,46,47,48,49,50
GLA inh pH 4.5,.,.,-1.3,.,-8.2
Rango release inh,-13.9%,-7.6%,6.1%,16.4%,-5.3%
miR-21 reporter,-25.1%,-11.3%,-2.3%,.,-1.5%
Rango complex inh,-3.2%,-1.3%,-1.0%,-0.2%,-4.7%

#51 Nc1ncnc2c1ncn2[C@H]1C[C@H](O)[C@@H](COP(=O)(O)O)O1
#52 Cc1ccc(NC(=O)c2cnccn2)cc1C
#53 CC(c1cccs1)N(C(=O)Nc1ccccc1)C1CCCCC1 (configuration not stated)
#54 O=S1(=O)C=CC(Nc2cccc(Cl)c2)C1 (configuration not stated)
#55 CCn1c(=O)n(C)c2c(=O)n(C)c(=O)n(C)c21
Compound,51,52,53,54,55
GLA inh pH 4.5,4.9,.,8.6,2.3,.
Rango release inh,-9.9%,5.5%,16.2%,10.6%,-17.3%
miR-21 reporter,-3.4%,-50.1%,-12.9%,15.7%,.
Rango complex inh,4.1%,?,-0.9%,2.1%,-1.9%

#56 Cc1cc(N2CCN(C3CCCC3)CC2)n2ncc(-c3ccccc3)c2n1
#57 O=C(NCc1ccco1)Nc1ccc(Br)cc1Cl
#58 O=C1Nc2ccccc2C1(O)c1ccccc1 (configuration not stated)
#59 COc1ccc(/C=C2/CCCC(CN(C)C)C2=O)cc1 (configuration not stated)
#60 O=C(NCc1ccco1)c1ccccc1O
Compound,56,57,58,59,60
GLA inh pH 4.5,-10.1,-2.7,-4.0,.,.
Rango release inh,.,4.6%,-4.5%,10.7%,7.1%
miR-21 reporter,-14.1%,-34.5%,1.7%,.,-5.1%
Rango complex inh,.,-0.6%,?,-2.0%,2.0%

#61 COc1ccc(CNC(=O)c2c(O)c3ccccc3n(C)c2=O)cc1
#62 C/C(CC(=O)Nc1ccc(C)c(Cl)c1)=N\NC(=O)c1ccncc1
#63 CCC(C(=O)N1CCN(c2cccc(Cl)c2)CC1)c1ccccc1 (configuration not stated)
#64 Cc1nn(-c2ccccc2)c(Cl)c1/C=N/Nc1nncc(=O)[nH]1
#65 COc1ccc(C2=CSC3=NCCN23)cc1
#66 O=C(Nc1ccc(F)cc1)c1cccc(C(=O)Nc2ccc(F)cc2)c1
#67 O=C(Nc1cccc(O)c1)c1ccccc1[N+](=O)[O-]
#68 CCOC(=O)C1C(c2ccc(OC)cc2)N(C)OC1(O)C(F)(F)F (configuration not stated)
Compound,61,62,63,64,65,66,67,68
GLA inh pH 4.5,.,-6.7,-3.5,2.7,.,.,5.7,0.8
Rango release inh,-9.3%,0.7%,-7.7%,5.7%,0.4%,0.2%,7.6%,-3.8%
miR-21 reporter,-3.5%,-1.3%,6.9%,-23.7%,0.7%,-1.3%,-2.5%,-6.9%
Rango complex inh,2.1%,-0.4%,-0.2%,4.1%,-0.2%,-0.3%,-0.2%,0.0%

In the list so far, these have a furan ring, fused or not:
#6 COc1ccc(NC(=O)c2ccccc2NC(=O)c2ccco2)c(OC)c1
#9 CCOc1ccc(C(=O)NC(=S)Nc2ccc(NC(=O)c3ccco3)cc2)cc1[N+](=O)[O-]
#10 O=C(NCc1ccco1)/C(=C/c1ccc(Cl)cc1)NC(=O)c1ccco1
#11 Cc1ccc(-n2ncc3c(NCc4ccco4)ncnc32)cc1C
#14 CC1(C)Cc2c(sc(NC(=O)c3ccco3)c2C(=O)O)CO1
#49 Cc1noc(C)c1-c1ccc2ncnc(NC(C)c3ccco3)c2c1 (configuration not stated)
#57 O=C(NCc1ccco1)Nc1ccc(Br)cc1Cl
Compound,6,9,10,11,14,49,57
GLA inh pH 4.5,-6.0,1.8,.,-5.1,7.1,.,-2.7
Rango release inh,0.0%,-3.0%,8.5%,7.8%,14.1%,16.4%,4.6%
miR-21 reporter,-11.3%,-1.6%,-1.3%,-42.4%,6.7%,.,-34.5%
Rango complex inh,0.9%,-4.9%,0.1%,5.0%,1.7%,-0.2%,-0.6%

#60 O=C(NCc1ccco1)c1ccccc1O
Compound,60
GLA inh pH 4.5,.
Rango release inh,7.1%
miR-21 reporter,-5.1%
Rango complex inh,2.0%

Source: PubChem (National Center for Advancing Translational Sciences (NCATS))

A portion of the library; rates above refer to the full screens.
